Assay outcomes (PubChem BioAssay)
Vif inh – blocks HIV Vif function; HEK293T cells, Vif self-association by quenched fluorescence, imaging, 24 h; inhibition, % at 7.49 µM; hit rate 0.35% among 340,000; AID 602346; in the data active means inhibition above about 50%, passing the limit was not always enough; further: some results filed as inactive read as strong as hits
KKLEB cytotox – CF airway cell cytotoxicity counter-screen. KKLEB CF airway cells viability, ATPlite luminescence, overnight; hits give low values; cells stimulated with P. aeruginosa culture filtrate. activity change (cytotoxicity), % at 5 µM. hit rate 0.36% among 360,000;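 active means corrected activity change at or below -50% at 5 µM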
NR2E3 ag-1 – activates human NR2E3 receptor. Q9Y5X4. hit rate 0.35% among 360,000. CHO-S Gal4-NCOR/VP16-NR2E3 two-hybrid, luciferase. AID 602229. inhibition of corepressor binding, % at 3.98 µM;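 active means inhibition above the mean of all tested compounds plus 3 SD, cut at about 70% in these data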;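 further: 0% = DMSO with NR2E3 transfected cells and 100% = cells lacking NR2E3 construct; higher means lower luciferase signal from less NR2E3 corepressor binding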
Target sequence (Q9Y5X4 whole entry, looked up, the tested form may be a part): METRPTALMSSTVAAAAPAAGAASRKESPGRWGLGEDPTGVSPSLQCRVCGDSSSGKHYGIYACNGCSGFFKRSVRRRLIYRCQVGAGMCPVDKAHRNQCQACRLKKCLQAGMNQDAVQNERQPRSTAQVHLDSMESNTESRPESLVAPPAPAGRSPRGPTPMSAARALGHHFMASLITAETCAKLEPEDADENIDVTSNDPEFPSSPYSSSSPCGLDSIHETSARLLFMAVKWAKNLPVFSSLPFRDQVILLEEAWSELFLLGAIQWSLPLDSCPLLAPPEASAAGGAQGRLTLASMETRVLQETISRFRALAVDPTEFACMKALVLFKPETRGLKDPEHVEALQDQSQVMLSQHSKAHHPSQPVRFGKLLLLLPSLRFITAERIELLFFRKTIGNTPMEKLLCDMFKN
PDI inh – PDI (human) enzyme inhibition; P07237; PDI insulin aggregation turbidity, A650, 90 min; inhibition, % at 10 µM; hit rate 0.052% among 350,000; AID 588391;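 active means mean inhibition across replicates of 30% or more, whatever share of single replicates reach that level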;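 further: absorbance from insulin aggregation driven by PDI reduction with DTT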
CaV13 FRET inh – Disruptors of the CACNA1D IQ motif to Ca2+-dependent inactivation inhibitor domain association, primary screening, Förster resonance energy transfer in intact living …; HEK cells, CFP/YFP FRET ICDI-IQ, plate reader, 10 min; percent FRET-ratio fall versus neutral wells; inhibition, % at 12.3 µM; hit rate 0.098% among 340,000; AID 743397;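 active means mean replicate inhibition of at least 30% and at least 1% of replicates passing that level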;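 further: 0% = median of the neutral control wells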
NR2E3 ag-2 – activates human photoreceptor nuclear receptor NR2E3. Q9Y5X4. GST-NR2E3/biotin-RetCOR TR-FRET, 1536-well. inhibition of corepressor binding, % at 4.78 µM. hit rate 0.12% among 320,000. AID 2300;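 active means percent inhibition above the cutoff of mean plus 3 SD of all tested compounds, set per screening campaign, cut at about 20% in these data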;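 further: 0% = DMSO wells and 100% = biotin wells as full block of FRET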
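Assay system: NR2E3–RetCOR corepressor complex. Quantity: 1.35 nM GST-NR2E3. Buffer or medium: pH 7.5 Tris-based buffer. Reagent: biotinylated RetCOR corepressor at 7 nM final. Schedule: 5 h at 4 °C. Detection: TR-FRET, emission read at 617 and 671 nm. Replicates: one well per compound, singlicate testing.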
Active calls of the source: *; . = no result given; & = joins results of further samples.

Every second line gives: Vif inh | PDI inh | KKLEB cytotox | CaV13 FRET inh | NR2E3 ag-1 | NR2E3 ag-2
(1) Nc1cc(=O)[nH]c(SCc2ccccc2)n1
    2 | -7 | -6 | -3 | -9 | .
(2) O=[N+]([O-])/C=C\c1ccc(N2CCCC2)c(F)c1
    10 | -6 | -12 | . | 15 | .
(3) O=C1N/C(=N\S(=O)(=O)Cc2ccccc2)S/C1=C/c1cc([N+](=O)[O-])ccc1O
    -1 | 5 | -6 | -10 | -2 | 5
(4) O=Nc1c(-c2c(O)[nH]c3cc(Br)ccc23)[nH]c2ccccc12
    -3 | -2 | -8 | -5 | 8 | -25
(5) Cc1[nH]ccc2c1[nH]c1cc(=O)ccc12
    -2 | 1 | -1 | -3 | -39 | -2
(6) CNC(=O)Oc1ccc2c(c1)[C@]1(C)CCN(C)C1N2C (some centres undefined)
    14 | 3 | 6 | -5 | -14 | 4&3
(7) CCOc1cc(/C=C2/C(=O)ON=C2C)ccc1OCc1ccccc1
    . | . | . | -12 | . | 3
(8) CCOc1cc(/C=C2\C(=O)ON=C2C)ccc1OCc1ccccc1
    0 | 0 | 2 | -6 | -11 | -1

Exported bar-delimited: two of the compounds above.
item | SMILES | Vif inh | PDI inh | KKLEB cytotox | CaV13 FRET inh | NR2E3 ag-1 | NR2E3 ag-2
8 | CCOc1cc(/C=C2\C(=O)ON=C2C)ccc1OCc1ccccc1 | 0 | 0 | 2 | -6 | -11 | -1
2 | O=[N+]([O-])/C=C\c1ccc(N2CCCC2)c(F)c1 | 10 | -6 | -12 | . | 15 | .

Single values from the list:
no. 3 in NR2E3 ag-2: 5
no. 4 in Vif inh: -3
no. 7 in CaV13 FRET inh: -12

Full records as entered above.
Listed for CCOc1cc(/C=C2\C(=O)ON=C2C)ccc1OCc1ccccc1 = Vif inh: 0; PDI inh: 0; KKLEB cytotox: 2; CaV13 FRET inh: -6; NR2E3 ag-1: -11; NR2E3 ag-2: -1
Listed for CCOc1cc(/C=C2/C(=O)ON=C2C)ccc1OCc1ccccc1 = Vif inh: .; PDI inh: .; KKLEB cytotox: .; CaV13 FRET inh: -12; NR2E3 ag-1: .; NR2E3 ag-2: 3

The list is partial; rates above refer to the full screens.
